# Screening data: PubChem BioAssay, ICCB-Longwood Screening Facility, Harvard Medical School
# AID504770: E. coli YBA685 growth inhibition, screen for V. cholerae RctB inhibitors. E. coli YBA685 rctB-dependent plasmid, OD600 growth, 3 h; stronger effect = lower value. AID 504770. 130,000 compounds, 0.27% hits. z-score (no concentration beside the values);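 active means z-score under -2 on both plates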;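 further: wells of about 30 µL received 100 nL stock; score is relative to mean and SD of the test wells; the first replicate is given; strong numbers were not always called active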
# CapD inh: inhibitors of Bacillus anthracis CapD enzyme; 140,000 compounds, 0.23% hits; z-score (no concentration beside the values); AID 492967; purified CapD enzyme, fluorescence intensity read-out; stronger effect = lower value; some hits fall short of the stated cut;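 active means z-score under -4 in either of two replicates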;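 further: stock transfer was 100 nL into about 40 µL; score is relative to mean and spread of the plate; one replicate is shown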
# * marks the source's active call; other numbers are inactive results; nt = not tested or not shown.
SMILES,AID504770,CapD inh
Cc1ccccc1C(=O)N1CCC(C(=O)OCc2ccccn2)CC1,0.1,nt
CCOc1ccccc1N(CC(=O)Nc1ccc(S(=O)(=O)N2CCOCC2)cc1)S(=O)(=O)c1ccccc1,nt,-0.25
COc1ccc(/C=N/N2C(=O)c3ccc4c5c(ccc(c35)C2=O)CC4)cc1Br,-1.3,-0.045
Cc1cc(/C=c2\sc3nc4ccccc4n3c2=O)c(C)n1-c1cccnc1,-0.6,0.52
O=C(O)C1Sc2[nH]c(=O)sc2C2c3ccccc3OC(=O)C12 (centres undefined),-0.95,0.025
O=C(C1CC1)N1CCN=C1SCc1ccc(C(F)(F)F)cc1,-0.1,nt
NS(=O)(=O)c1ccc(CCNC(=O)CSc2nc3ccc(Cl)cc3o2)cc1,0.25,nt
O=C(c1cnc2ccccc2n1)N1CCN(c2cccc(Cl)c2)CC1,-0.15,-0.28
COc1ccccc1Cn1c(N)c(C(N)=O)c2nc3ccccc3nc21,-1.2,nt
CC1=NN(C(=O)CSc2nnc(-c3ccncc3)o2)C(C)(O)C1 (centres undefined),-1.3,-0.065
O=S1(=O)CC(c2ccccc2)CS(=O)(=O)C1CCN1CCOCC1 (centres undefined),2.3,-0.74
N#Cc1ccccc1CSc1nc2ccccc2c(=O)n1CCCC(=O)NCc1ccco1,1.5,-0.52
CSC(=NC(C)C)NC#N,-0.55,-0.13
N#CC1=C(N)C(C#N)(C#N)C(c2ccc(Cl)cc2)C2CN(Cc3ccccc3)CC=C12 (centres undefined),nt,29
O=c1c(/C=N/OCc2ccc(Cl)cc2Cl)c[nH]n1-c1cccc(Cl)n1,nt,0.85
Cc1csc2nc(CNS(=O)(=O)c3ccccc3)cn12,0.2,0.29
O=C(Cc1csc(-c2ccccc2)n1)N/N=C/C=C/c1ccccc1,nt,-1.2
COc1cc(CNc2ccc(C)cc2)ccc1O,0.65,0.26
COc1ccc(C2CC(c3ccccc3)=NN2C(=O)c2cc(OC)c(OC)c(OC)c2)cc1 (centres undefined),nt,1.5
CC1(C)CC(=O)C2=C(C1)c1c(ccc3ccccc13)NC2c1ccc(OCc2ccccc2)cc1 (centres undefined),nt,6.4
Cc1c(NC(=O)NCCCN2CCOCC2)sc2nc3n(c(=O)c12)CCC(C)CC3 (centres undefined),0.65,0.51
O=C(Cn1nc(-c2ccco2)ccc1=O)NCc1ccco1,0.3,nt
COc1ccc2[nH]c(=O)c(CN(C3CCCC3)S(=O)(=O)c3cccc4nsnc34)cc2c1,-0.05,nt
O=C(Nc1ccccc1)c1cc(Cl)ccc1O,-2.7*,42
COc1cc(N2C(=O)CSC2=S)cc(OC)c1OC,0.6,1
O=C(NCc1ccco1)c1ccc(S(=O)(=O)NCC2CCCCC2)cc1,0.75,nt
O=c1[nH]c2c(=O)oc3ccccc3c2n(C2CCCCC2)c1=O,-0.5,-0.065
O=C(O)CCNc1ccccc1,1.9,0.13
CCCN(Cc1nnc(-c2ccccc2Cl)o1)C(=S)NC1CCCCC1,0,nt
O=C1OC(c2ccccc2)=N/C1=C/c1ccc(F)cc1,0.45,1.7
CC(C)N1CC(=O)N(c2ccc(F)c(Cl)c2)C1=S,0.7,nt
NS(=O)(=O)c1ccc(CCNC(=O)C2CCCC2)cc1,0.05,nt
N#Cc1ccc(NC(=O)c2cc(=O)c3ccccc3o2)cc1,-0.2,nt
Cc1noc(C)c1NC(=O)Nc1ccc(N(C)C)cc1,1.9,-0.43
CSc1ncnc2c1ncn2CN1CCOCC1,-0.5,0.12
COc1cc(CN2CC3CC(C2)c2cccc(=O)n2C3)cc(Br)c1O (centres undefined),0,0.71
O=C(Nc1ccncc1)c1cn(-c2ccccc2)nc1-c1cccs1,0.15,0.78
CC(=O)N1c2ccccc2C(=O)OC1c1cccnc1 (centres undefined),-1.2,4.2
COc1cc(C(=O)NNC(=O)c2ccc(Cl)c(Cl)c2)cc(OC)c1OC,nt,0.52
C=CCOC(=O)C1=C(C)NC(SCC(=O)Nc2ccc(C)cc2C)=C(C#N)C1c1ccco1 (centres undefined),nt,47
COc1ccc(-c2csc(N)n2)cc1F,-2.1,nt
COc1ccccc1NC(=O)NC1CCN(c2ncc(C(F)(F)F)cc2Cl)CC1,nt,-0.095
Cc1c(C(=O)NCCCN2CCOCC2)sc2ncnc(N3CCN(c4ccccc4)CC3)c12,nt,0.79
Cc1cc(C)c2c(n1)SCC(=O)N2CCCC(=O)NCc1ccccc1,1.4,-1.1
CCOC(=O)c1cnc2ccccc2c1Nc1ccc(OC)cc1,-0.75,-0.45
CSc1nnc(COc2cccc3ccc(C)nc23)n1C,-0.1,3.2
Cn1c2c(c(=O)[nH]c1=O)C(c1cccc(Br)c1)C1=C(N2)c2ccccc2C1=O (centres undefined),nt,0.35
O=C(CSc1cccc[n+]1[O-])NC1CCCc2ccccc21 (centres undefined),0,0.91
O=C(CSc1ccccc1Cl)c1cccs1,-1.2,-0.7
CC(C)(C)C1COc2ccccc2N1C(=O)c1cccc(C(F)(F)F)c1 (centres undefined),nt,0.16
Cc1ccc(Nc2nc(C)cc(C)c2C(N)=O)cc1,-0.95,-0.62
Cc1oc2cc(O)cc(O)c2c(=O)c1-c1ccc2c(c1)OCCCO2,-1,-1.3
CCN1C(=O)/C(=C2\SC(=S)N(c3cccc(Cl)c3)C2=O)c2ccccc21,-0.05,-0.32
Cn1c(/C=C/C(=O)O)nc2ccccc21,-0.15,53
CC1CCN(C(=O)Cn2ncc3c4ccccc4n(Cc4ccccc4)c3c2=O)CC1,-0.9,1.1
CCN1CCCC1CNC(=O)c1cc2c(s1)CS(=O)(=O)C2 (centres undefined),-0.6,0.18
CNC(=O)C(NS(=O)(=O)c1ccc(Br)cc1)C(C)(C)C (centres undefined),nt,-0.17
CCOC(=O)c1nn(-c2ccc(F)cc2)c(=O)cc1OCC(=O)NC1CCCC1,1.5,nt
CC(=O)N(Nc1ccccc1)c1ccccc1,0.2,-0.15
O=C(c1ccccc1)c1cncc(Br)c1,-0.4,-0.035

# More results
SMILES,AID504770,CapD inh
CCCCCc1nn2cc(-c3cccc(OC)c3)nc2s1,-0.5,-0.01
N#C/C(N)=C(/C#N)N=Cc1c(F)cccc1Cl,-1.8,-1.2
C=CCC1(/C=C/C)CCCCN1 (centres undefined),-1.2,-0.48
CCN(CC(=O)Nc1ccc2c(c1)OCCO2)C(=O)c1cc(Cl)ccc1O,1.4,nt
CC(C)(C)NC(=O)CSc1nnnn1C(C)(C)C,1.8,-0.48
CCCNC(=O)c1cc2oc3ccccc3c2n1C,-0.9,28
Cc1ccc(-n2ncc3c(=O)n(-c4ccc(F)c(Cl)c4)c(-c4ccco4)nc32)cc1,0.35,18
Cc1cc2occ(CC(=O)OCc3nc4ccccc4c(=O)n3CC#N)c2cc1C,0.05,nt
Cc1cc(C)nc(Nc2ccc(N)cc2)n1,nt,-0.34
CCOc1ccc(C2C(C(=O)OC)=CN(CCOC)C=C2C(=O)OC)cc1,1.7,69
CCC(=O)Nc1nc(-c2ccc3c(c2)CCN3C(C)=O)cs1,1.4,nt
O=C(c1ccccc1)c1ccccc1C(=O)c1ccccc1,-0.25,-1
Cc1ccc(S(=O)(=O)NC(=O)n2cc(-c3ccncn3)c(-c3ccccc3)n2)cc1,nt,-0.42
CCCc1ccc(S(=O)(=O)NCCCCc2ccccc2)cc1,nt,0.51
Cc1cccc(Oc2coc3cc(OC(=O)c4ccc(F)cc4)ccc3c2=O)c1,-0.65,0.35

# Taken from the results shown for reference:
SMILES,AID504770,CapD inh
Cc1ccccc1C(=O)N1CCC(C(=O)OCc2ccccn2)CC1,0.1,nt
CCOc1ccccc1N(CC(=O)Nc1ccc(S(=O)(=O)N2CCOCC2)cc1)S(=O)(=O)c1ccccc1,nt,-0.25

# The list goes on.
SMILES,AID504770,CapD inh
O=C(OCc1c(F)cccc1Cl)N1CCN(c2ncnc3sccc23)CC1,nt,-0.43
O=C1CS/C(=N/c2ccccn2)N1C1CCCCC1,0.45,24
O=C(COc1ncnc2ccccc12)Nc1ccc(Cl)cc1F,-0.9,0.38
O=S(=O)(NC(c1ccccc1)c1ccccc1)c1ccccc1,-0.2,0.06
CCc1nc2cc(N)ccc2n1C,0.15,nt
O=C(NCc1cccs1)C1CCC(CNS(=O)(=O)c2cccc3nsnc23)CC1 (centres undefined),0.7,-1.7
O=C(NC1CCCCC1)C(=S)NC1CCCC1,-0.5,-0.36
CCOc1cc(/C=C/C(=O)C2C(=O)C=C(C)OC2=O)cc(Br)c1O (centres undefined),0.15,nt
COC(=O)CSc1nnc(CNC(=O)c2cccs2)n1C,-0.65,-0.3
CCN1CCCC1CN(Cc1cc2cc(OC)ccc2[nH]c1=O)C(=O)Nc1ccccc1 (centres undefined),0.2,nt
Nc1ccc2oc(-c3ccccc3)nc2c1,1.4,2.2
Cc1ccc2c(c1)OC(=O)CC2c1ccccc1 (centres undefined),2,-0.025
CCOC(=O)c1c(-c2ccccc2)oc2cc(Br)c(O)cc12,0.4,2
CCN(CC)c1ccc(-c2nocc2C#N)cc1,0.2,-0.73
O=C(CSc1nc2ncccc2[nH]1)NC1CCCC1,-1,1.9
O=C(Nc1cc(Cl)ccc1Oc1ccc(Br)c2ccccc12)c1cc(Cl)cc(I)c1O,nt,1
CC(=O)NCc1ccc(C(=O)COC(=O)CCc2c[nH]c3ccccc23)o1,-0.35,nt
Cc1cccc(OCc2nc(-c3ccc(NC(=O)c4cccs4)cc3)no2)c1,nt,4.1
O=C1CCCN1CCCn1cnc2c([nH]c3ccccc32)c1=O,0.4,50
Cc1ccc(C)c(N2C(=O)C3C(C2=O)N2CCCN2C3c2ccccc2)c1 (centres undefined),nt,-0.24
CC(=O)Nc1ccc(NC(=O)c2c(F)c(F)c(F)c(F)c2F)cc1,1.5,-0.1
COc1ccc(Cl)cc1S(=O)(=O)NCC(C)(C)CN(C)C,nt,-0.74
Cc1cccc(C)c1-n1c(C2CC3CCC2O3)n[nH]c1=S (centres undefined),0.25,0.64
O=C(O)CC1(C(=O)O)CCCC1,-1.4,-0.34
CCCC(C(=O)O)N1C(=O)/C(=C/c2ccc(C)cc2)SC1=S (centres undefined),0.1,-3.6
COc1cc(/C=N/NC(=O)c2sc(N)nc2C)ccc1O,-0.5,3.5
CC(C)(C)C(=O)CSc1nc2ccccc2c(=O)n1CC1CC1,0,-0.3
S=C(/N=C/NOCc1c(Cl)cccc1Cl)Nc1ccccc1,nt,-0.18
Cn1cccc1CNCc1ccccn1,-0.95,0.055
O=C(CSC(c1ccccc1)c1ccccc1)Nc1ccccc1,0.4,-0.35
CO/N=C1\CN(c2nc3c(cc2F)c(=O)c(C(=O)O)cn3C2CC2)CC1CN (centres undefined),-3.6*,nt
N#Cc1c(SCc2ccccc2)nc(-c2ccc(Cl)cc2)c2c1CCCC2,nt,-0.97
COc1ccc(Cl)cc1N1CC(c2nc3ccccc3[nH]2)CC1=O (centres undefined),-0.65,-0.8
O=S(=O)(NCc1ccco1)c1cc(Cl)cc(Cl)c1,nt,0.85
CC(C)Nc1nnc(SCC(=O)Nc2c(C#N)oc3ccccc23)s1,0.3,nt
O=C1C=CC(=O)N1c1ccccc1N1CCCCCC1,0.55,-0.21
COc1ccccc1NC(=O)C1=C(C)NC(SCC(=O)Nc2ccc(C)cc2C)=C(C#N)C1c1ccccc1 (centres undefined),nt,0.64
Cc1ccc(C)n1CCN1CCN(C(=O)c2cccs2)CC1,-1.1,0.78
CCOC(=O)CSc1nc2ncccc2c(=O)n1Cc1ccccc1,-0.75,-0.12
CC(C)(C)C(O)(CC#CCN1CCCC1)c1ccccc1 (centres undefined),0.35,-0.025
CSc1ccc([C@H]2[C@H](C(=O)C(C)(C)C)N3C=Cc4ccccc4[C@H]3C2(C#N)C#N)cc1,nt,5.9
COc1ccc(NS(=O)(=O)C(F)(F)F)cc1,0.9,-0.41
C=C(C)CSc1nc2nc3c(cc2c(=O)n1-c1ccccc1)COC(C)(C)C3,nt,0.38
O=C(CCCN1C(=O)C(c2ccccc2)Oc2cccnc21)N1CCc2ccccc21 (centres undefined),-0.85,0.055
CN(C)CCC(=O)/C=C/c1ccco1,-0.15,-2.1
O=C(CCn1nc(C(F)(F)F)cc1C1CC1)NCCC1=CCCCC1,0.05,0.34
Cc1ccc(Nc2nc(N)nc(COc3ccccc3C#N)n2)cc1,1,nt
Cc1cc(C)c(S(=O)(=O)Nc2ccc3[nH]c(=O)[nH]c3c2)c(C)c1,-2.2,0.57
COc1ccccc1N1CCN(/C(C)=C/C(=O)Nc2ccccc2C)CC1,nt,0.47
O=C(Nc1ccccc1)c1cccn(Cc2c(F)cccc2Cl)c1=O,nt,0.34
Nc1ccccc1C(=O)NC1CCCCC1,nt,94

# Filtered by structure, those above containing a cyano group.
SMILES,AID504770,CapD inh
N#Cc1ccccc1CSc1nc2ccccc2c(=O)n1CCCC(=O)NCc1ccco1,1.5,-0.52
CSC(=NC(C)C)NC#N,-0.55,-0.13
N#CC1=C(N)C(C#N)(C#N)C(c2ccc(Cl)cc2)C2CN(Cc3ccccc3)CC=C12 (centres undefined),nt,29
N#Cc1ccc(NC(=O)c2cc(=O)c3ccccc3o2)cc1,-0.2,nt
C=CCOC(=O)C1=C(C)NC(SCC(=O)Nc2ccc(C)cc2C)=C(C#N)C1c1ccco1 (centres undefined),nt,47
N#C/C(N)=C(/C#N)N=Cc1c(F)cccc1Cl,-1.8,-1.2
Cc1cc2occ(CC(=O)OCc3nc4ccccc4c(=O)n3CC#N)c2cc1C,0.05,nt
CCN(CC)c1ccc(-c2nocc2C#N)cc1,0.2,-0.73
N#Cc1c(SCc2ccccc2)nc(-c2ccc(Cl)cc2)c2c1CCCC2,nt,-0.97
CC(C)Nc1nnc(SCC(=O)Nc2c(C#N)oc3ccccc23)s1,0.3,nt
COc1ccccc1NC(=O)C1=C(C)NC(SCC(=O)Nc2ccc(C)cc2C)=C(C#N)C1c1ccccc1 (centres undefined),nt,0.64
CSc1ccc([C@H]2[C@H](C(=O)C(C)(C)C)N3C=Cc4ccccc4[C@H]3C2(C#N)C#N)cc1,nt,5.9
Cc1ccc(Nc2nc(N)nc(COc3ccccc3C#N)n2)cc1,1,nt

# Not a hit list (roughly 0.37% active in at least one column).
